FGF22 binding – binders of human FGF22 protein, primary screen, FGF22 synaptogenesis inhibitor project, biophysical, thermal shift, single point. recombinant FGF22 thermal shift, SYPRO orange fluorescence; percent of sucrose octasulfate shift, DMSO zero. calls only at 9.99 µM. 340,000 compounds, 1.5% hits. AID 651658, 2012;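 active = melting point raised past a set limit in the mean and every replicate; three in four hits are not shown here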
Target sequence (Q9HCT0 whole entry, looked up): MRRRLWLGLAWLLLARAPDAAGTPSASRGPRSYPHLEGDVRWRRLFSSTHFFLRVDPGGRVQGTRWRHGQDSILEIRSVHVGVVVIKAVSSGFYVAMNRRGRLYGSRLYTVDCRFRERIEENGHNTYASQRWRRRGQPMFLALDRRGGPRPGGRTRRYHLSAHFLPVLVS
Ecoli rRNA inh – reduced GFP signal of wild-type E. coli, primary screen, bacterial rRNA inhibitor project, GFP/RFP fluorescence, OD600, single point; E. coli WT GFP vs humanized-ribosome RFP mutants, 24 h; hits give low values; DMSO median 0, no signal -100; GFP signal change (wild-type ribosome), % (no concentration beside the values); 350,000 compounds, 1.6% hits;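 active = significant combined selectivity score with lowered wild-type GFP, culture density cut under 30%, mutant RFP and density less affected; inactive = any of these conditions unmet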; note: one replicate is shown; some compounds called inactive have numbers as strong as hits
Ecoli rRNA inh OD600 – recorded beside Ecoli rRNA inh, whose call it bears; OD600 change, %; measured here: OD600 growth;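 optical density of the mix in the first replicate; 0 = DMSO median and -100 = no signal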
Ecoli rRNA inh RFP – also measured in Ecoli rRNA inh; calls as there; RFP signal change, %; measured here: RFP humanized mutant strains;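 first replicate; 0 = DMSO median and -100 = no signal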
* = called active by the depositor; i = inactive.

SMILES | FGF22 binding | Ecoli rRNA inh | Ecoli rRNA inh OD600 | Ecoli rRNA inh RFP
C[C@@H]1CN([C@@H](C)CO)C(=O)c2cc(NC(=O)CCN3CCOCC3)ccc2O[C@H]1CN(C)C(=O)NC1CCCCC1 | i | 3.2 | 14.1 | -1.1
COc1cccc(NC(=O)N(C)C[C@H]2OCc3cnnn3CCCC(=O)N([C@@H](C)CO)C[C@@H]2C)c1 | i | -0.6 | 2.8 | 0.3
C[C@@H]1CN([C@@H](C)CO)C(=O)c2cc(NS(=O)(=O)c3ccc(Cl)cc3)ccc2O[C@@H]1CN(C)CC1CC1 | i | 1.8 | -2.6 | 1.8
CC(C)NC(=O)Nc1ccc2c(c1)C(=O)N([C@@H](C)CO)C[C@@H](C)[C@H](CN(C)C(=O)Nc1ccc(F)cc1)OCCCC[C@H](C)O2 | i | 1.1 | 2.8 | -0.2
C[C@H](O)C#Cc1ccc2c(c1)O[C@@H](CN(C)C(=O)CC1CC1)[C@H](C)CN([C@@H](C)CO)S2(=O)=O | i | -3.1 | 0.6 | -0.3
CCC(=O)N[C@H]1C=C[C@H](CC(=O)NCc2ccccc2OC)O[C@@H]1CO | i | 4.2 | 2.3 | -0.8
C[C@H](CO)N1C[C@H](C)[C@@H](CN(C)S(=O)(=O)c2cccs2)Oc2ncc(/C=C/c3ccccc3)cc2C1=O | i | -9.8 | -8.3 | 1.9
CN1CCN(C(=O)C[C@H]2C[C@H]3c4cc(NC(=O)CC5CC5)ccc4O[C@H]3[C@H](CO)O2)CC1 | i | -0.9 | -1.5 | -3.6
COc1ccc(C#Cc2ccc([C@@H]3[C@H](CO)N4CCCCN(C(=O)Nc5cccc(F)c5)C[C@@H]34)cc2)cc1 | i | -49.0* | -36.3* | -0.2*
O=S(=O)(c1ccccc1)N1[C@H](CO)[C@H]2c3ccccc3NC[C@H]21 | i | 0.3 | 6.7 | 0.5
Cc1ccc(S(=O)(=O)N(C)C[C@@H]2OCc3cn(nn3)CCCC(=O)N([C@H](C)CO)C[C@@H]2C)cc1 | i | -2.1 | 8.1 | -0.4
C[C@@H]1CN([C@H](C)CO)C(=O)c2cc(C#CCN(C)C)cnc2O[C@H]1CN(C)Cc1ccc(-c2ccccc2)cc1 | i | 1.0 | 2.7 | 3.1
CNC[C@@H]1Oc2ccc(NC(=O)NC3CCCCC3)cc2CC(=O)N([C@H](C)CO)C[C@H]1C | i | 5.9 | 3.3 | -0.3
CCC(=O)N[C@H]1C=C[C@H](CC(=O)NCCN2CCCCC2)O[C@H]1CO | i | -0.6 | 12.9 | -1.1
CC=Cc1ccc2n(c1=O)C[C@@H]1[C@@H](CO)[C@H](C(=O)NCCC)N(CCC(F)(F)F)[C@H]21 (mixture of isomers) | i | 2.5 | 0.6 | 1.8
C[C@@H]1CN([C@H](C)CO)C(=O)c2cccc(NS(=O)(=O)c3ccc(F)cc3)c2O[C@@H]1CN(C)C(=O)Nc1ccc2c(c1)OCO2 | i | 0.9 | 8.9 | 1.8
C[C@H]1CN([C@@H](C)CO)C(=O)Cc2cc(NC(=O)CCC(F)(F)F)ccc2O[C@@H]1CN(C)CC1CC1 | i | 0.0 | 1.0 | -1.0
COc1ccc(S(=O)(=O)N[C@H]2CC[C@@H](CC(=O)N3CCc4ccccc4C3)O[C@H]2CO)cc1 | i | 1.8 | 5.6 | -2.8
C[C@H]1CCCCO[C@H](CN(C)Cc2ccc(C(F)(F)F)cc2)[C@@H](C)CN([C@@H](C)CO)C(=O)c2cc(NC(=O)Nc3ccc4c(c3)OCO4)ccc2O1 | i | -5.2 | -2.8 | -2.6
C[C@H](CO)N1C[C@H](C)[C@H](CN(C)C(=O)C2CCOCC2)Oc2ncc(/C=C/c3ccccc3)cc2C1=O | i | 3.1 | 10.6 | -5.0

Next part; the last three above are carried over.
SMILES | FGF22 binding | Ecoli rRNA inh | Ecoli rRNA inh OD600 | Ecoli rRNA inh RFP
COc1ccc(S(=O)(=O)N[C@H]2CC[C@@H](CC(=O)N3CCc4ccccc4C3)O[C@H]2CO)cc1 | i | 1.8 | 5.6 | -2.8
C[C@H]1CCCCO[C@H](CN(C)Cc2ccc(C(F)(F)F)cc2)[C@@H](C)CN([C@@H](C)CO)C(=O)c2cc(NC(=O)Nc3ccc4c(c3)OCO4)ccc2O1 | i | -5.2 | -2.8 | -2.6
C[C@H](CO)N1C[C@H](C)[C@H](CN(C)C(=O)C2CCOCC2)Oc2ncc(/C=C/c3ccccc3)cc2C1=O | i | 3.1 | 10.6 | -5.0
C[C@H]1CN([C@@H](C)CO)C(=O)c2cccc(NS(=O)(=O)c3cn(C)cn3)c2O[C@@H]1CN(C)Cc1ccc2c(c1)OCO2 | i | 0.0 | 6.0 | 0.0
O=C(C[C@H]1C=C[C@H](NC(=O)C2CCC2)[C@H](CO)O1)NCC1CC1 | i | 0.0 | 3.7 | -1.6
C[C@H](CO)N1C[C@H](C)[C@@H](CN(C)Cc2ccc(C(=O)O)cc2)Oc2c(NC(=O)Nc3ccc4c(c3)OCO4)cccc2C1=O | i | -0.3 | -1.6 | 1.6
CO[C@@H]1CN(C)C(=O)c2ccc(NS(=O)(=O)c3ccccc3)cc2OC[C@H](C)NC[C@H]1C | i | 2.3 | 0.5 | -1.0
C[C@@H]1CN([C@@H](C)CO)C(=O)c2cc(NS(=O)(=O)c3ccccc3)ccc2O[C@@H]1CN(C)S(=O)(=O)c1cn(C)cn1 | i | 4.0 | 8.8 | 1.3
C[C@@H]1CN([C@H](C)CO)C(=O)c2cc(C#CCN(C)C)cnc2O[C@@H]1CN(C)Cc1ccccn1 | i | 7.0 | -9.3 | -0.1
COc1ccc(-c2ccc3n(c2=O)C[C@H]2[C@H](CO)[C@@H](C(=O)N4CCOCC4)N[C@@H]32)cc1 | i | -0.1 | 1.2 | 2.9
CC=Cc1ccc2n(c1=O)C[C@@H]1[C@@H](CO)[C@H](C(=O)NCCC)[C@H]2N1Cc1ccccc1OC (mixture of isomers) | i | -2.3 | -2.9 | 1.3
O=C(NC[C@H]1N[C@H](CO)[C@@H]1c1ccc(C2=CCCC2)cc1)c1ccccc1 | i | -61.4 | -80.7 | -14.6
CNC[C@@H]1Oc2ccc(NC(=O)C3CC3)cc2CC(=O)N([C@@H](C)CO)C[C@H]1C | i | 1.5 | -3.0 | -1.6
O=C(NCC[C@@H]1CC[C@H](NS(=O)(=O)c2ccc(Oc3ccccc3)cc2)[C@@H](CO)O1)C1CC1 | i | -3.8 | -9.1 | -1.8
COc1ccc(NC(=O)Nc2ccc3c(c2)CC(=O)N([C@@H](C)CO)C[C@H](C)[C@H](CN(C)C(=O)Nc2ccc(OC)cc2)O3)cc1 | i | -2.1 | -7.3 | -1.5
COc1ccc(S(=O)(=O)Nc2ccc3c(c2)CC(=O)N([C@@H](C)CO)C[C@H](C)[C@H](CN(C)S(=O)(=O)c2ccccc2)O3)cc1 | i | 3.6 | -3.1 | -1.9
C[C@H]1CN([C@@H](C)CO)C(=O)Cc2cc(NS(=O)(=O)c3ccccc3)ccc2O[C@H]1CN(C)S(=O)(=O)c1cn(C)cn1 | i | -1.2 | 5.2 | -1.8
C[C@H]1CN([C@@H](C)CO)C(=O)c2cc(-c3ccccc3F)cnc2O[C@H]1CN(C)C | i | 2.1 | -3.1 | -2.4
O=C(C[C@@H]1CC[C@@H]2[C@H](COC[C@@H](O)CN2S(=O)(=O)c2ccc(F)cc2)O1)NCCN1CCCCC1 | i | 4.7 | 1.8 | -2.3
C[C@H](CO)N1C[C@H](C)[C@H](CN(C)Cc2ccc(C(=O)O)cc2)Oc2ccc(NS(=O)(=O)c3ccccc3)cc2CC1=O | i | 1.5 | 0.7 | -0.5
CC(C)C#Cc1ccc([C@H]2[C@H](CO)N3CCCCN(C(=O)NC(C)C)C[C@@H]23)cc1 | i | 4.2 | -0.1 | 0.1
COCCNC(=O)C[C@H]1C[C@@H]2c3cc(NC(=O)CC4CC4)ccc3O[C@@H]2[C@@H](CO)O1 | i | 1.7 | 18.4 | -0.4
O=C(C[C@H]1CC[C@H](NC(=O)c2ccc3c(c2)OCO3)[C@@H](CO)O1)NC1Cc2ccccc2C1 | i | 1.1 | -6.6 | -0.6

Continued; it opens with the three that closed the last part.
SMILES | FGF22 binding | Ecoli rRNA inh | Ecoli rRNA inh OD600 | Ecoli rRNA inh RFP
CC(C)C#Cc1ccc([C@H]2[C@H](CO)N3CCCCN(C(=O)NC(C)C)C[C@@H]23)cc1 | i | 4.2 | -0.1 | 0.1
COCCNC(=O)C[C@H]1C[C@@H]2c3cc(NC(=O)CC4CC4)ccc3O[C@@H]2[C@@H](CO)O1 | i | 1.7 | 18.4 | -0.4
O=C(C[C@H]1CC[C@H](NC(=O)c2ccc3c(c2)OCO3)[C@@H](CO)O1)NC1Cc2ccccc2C1 | i | 1.1 | -6.6 | -0.6
C[C@@H]1CCCCO[C@H](CN(C)S(=O)(=O)c2ccccc2)[C@H](C)CN([C@@H](C)CO)C(=O)c2cc(NC(=O)Cc3ccccc3)ccc2O1 | i | -1.7 | -4.5 | -0.2
CN(C)CC(=O)N1CCCCN2[C@H](CO)[C@@H](c3ccc(-c4cccnc4)cc3)[C@@H]2C1 | i | 2.4 | 3.8 | -2.5
O=C(C[C@@H]1CC[C@@H]2[C@H](COC[C@@H](O)CN2C(=O)Nc2cccc(Cl)c2)O1)NCc1ccccc1F | i | -61.2 | -77.8 | -19.9
C[C@@H]1CN([C@@H](C)CO)C(=O)c2cc(-c3cncnc3)cnc2O[C@H]1CN(C)C(=O)Nc1ccc2c(c1)OCO2 | i | 4.8 | 4.0 | -2.7
C[C@H](CO)N1C[C@H](C)[C@H](CN(C)Cc2ccc(-c3ccccc3)cc2)Oc2c(NS(C)(=O)=O)cccc2C1=O | i | -4.4 | -11.6 | -2.0
CO[C@H](CN(C)S(=O)(=O)c1ccc(C)cc1)[C@H](C)CN([C@@H](C)CO)S(=O)(=O)c1cccc(Cl)c1 | i | -11.3 | -37.4 | -2.2
Cc1noc(C)c1NC(=O)Nc1ccc2c(c1)C(=O)N([C@@H](C)CO)C[C@H](C)[C@@H](CN(C)C(=O)Nc1ccc(C(F)(F)F)cc1)OCCCC[C@@H](C)O2 | i | -2.9 | -0.1 | -1.9
O=C(Nc1ccccc1F)N[C@H]1CC[C@H](CCNC(=O)C2CCOCC2)O[C@H]1CO | i | -0.1 | 2.8 | -0.7
C[C@H](CO)N1C[C@H](C)[C@@H](CN(C)C(=O)Nc2ccc3c(c2)OCO3)Oc2c(NS(=O)(=O)c3cccs3)cccc2C1=O | i | 2.1 | 1.5 | -2.7
CS(=O)(=O)Nc1ccc2c(c1)[C@H]1C[C@H](CC(=O)N3CCOCC3)O[C@H](CO)[C@H]1O2 | i | 2.8 | 8.7 | -2.5
COc1ccc2c3c([nH]c2c1)[C@@H](CO)N(C(=O)c1ccc(F)cc1)CC31CN(Cc2cccnc2)C1 | i | -1.2 | -3.2 | 5.8
C[C@H]1CN([C@@H](C)CO)C(=O)c2cc(NC(=O)CCN3CCOCC3)ccc2O[C@@H]1CN(C)C(=O)Nc1ccc(C(F)(F)F)cc1 | i | -6.0 | 3.2 | -1.4
C[C@@H]1CN([C@@H](C)CO)C(=O)c2cccc(NS(=O)(=O)c3cccs3)c2O[C@H]1CN(C)Cc1ccc(C(=O)Nc2ccccc2N)cc1 | i | 0.8 | 1.4 | -0.5
CCN1[C@@H]2c3cccc(=O)n3C[C@@H]2[C@@H](CO)[C@@H]1C(=O)N1CCc2ccccc2C1 | i | 1.6 | 11.4 | -2.4
CS(=O)(=O)Nc1ccc2c(c1)[C@H]1C[C@@H](CC(=O)NCCc3ccccc3)O[C@@H](CO)[C@H]1O2 | i | 9.4 | 12.6 | 0.1
O=C(C1CCC1)N1CCCCN2[C@H](CO)[C@H](c3ccc(C#CC4(O)CCCC4)cc3)[C@H]2C1 | i | -1.0 | 16.8 | -3.6
CN1CCN(C(=O)C[C@@H]2CC[C@H]3[C@@H](COC[C@@H](O)CN3Cc3ccc4c(c3)OCO4)O2)CC1 | i | -4.6 | -7.8 | 1.5
CCCNC(=O)N(C)C[C@H]1Oc2ncc(-c3ccc(F)cc3)cc2C(=O)N([C@H](C)CO)C[C@@H]1C | i | 1.7 | -5.7 | 2.6
COCC(=O)N1CCCCN2[C@@H](CO)[C@@H](c3ccc(-c4ccc(F)cc4)cc3)[C@@H]2C1 | i | 1.5 | 2.8 | -1.3
CCS(=O)(=O)N[C@@H]1C=C[C@H](CC(=O)NCc2ccc(Cl)cc2)O[C@H]1CO | i | -2.9 | 2.2 | 0.9
C[C@@H]1CCCCO[C@@H](CN(C)C(=O)NC2CCCCC2)[C@@H](C)CN([C@@H](C)CO)C(=O)c2cc(NC(=O)Cc3ccccc3)ccc2O1 | i | -0.6 | -10.0 | 4.0
C[C@@H]1CN([C@@H](C)CO)C(=O)c2cc(NS(=O)(=O)c3cccs3)ccc2O[C@@H](C)CCCCO[C@H]1CN(C)Cc1ccc(C(F)(F)F)cc1 | i | 0.7 | -24.2 | 20.8
Cc1ccc(S(=O)(=O)N(C)C[C@@H]2Oc3c(NC(=O)C4CCOCC4)cccc3C(=O)N([C@H](C)CO)C[C@@H]2C)cc1 | i | -2.5 | 7.6 | 0.0
CCS(=O)(=O)Nc1ccc2c(c1)C(=O)N(C)C[C@@H](OC)[C@@H](C)CN(C(C)=O)[C@H](C)CO2 | i | 1.0 | 1.2 | -0.2
CN(C)C(=O)c1ccc(-c2ccc3c(c2)[C@H]2[C@H](CCN2S(=O)(=O)c2cn(C)cn2)[C@@H](CO)N3)cc1 | i | 6.6 | 21.2 | -2.6

Screens (PubChem)

These rows are one share of the data, so the mix of outcomes need not match the whole.
